Screens as filed in PubChem BioAssay.
HCMV UL50-53 inh: disrupts HCMV UL50-UL53 complex binding; HTRF UL50-UL53 interaction, normalized percent inhibition; inhibition, % (concentration not given with the values); 0.15% of 190,000 active; AID 1918969;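 active means both replicates at 50% or more, plus weaker picks with an unusually low signal ratio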;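 further: stock transfer was 100 nL into about 20 µL; 0% = negative control wells and 100% = wells with untagged competitor protein; inactives centre near -12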
Sa growth 42C: blocks Staphylococcus aureus growth. 0.53% of 170,000 active. relative growth, % (no concentration beside the values). S. aureus RN4220 growth, OD600, 20 h, 42 °C; stronger effect = lower value;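 active means growth at 42 °C up to 50% and 20 or more points under that at 30 °C, or under 10% at both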;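 further: 300 nL library stock went into each well; scaled to the means of positive and negative controls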
GIV-Gai inh: blocks GIV peptide binding to rat Galpha-i3 | P08753 | Galpha-i3/FITC-GIV peptide fluorescence polarization, 90 min; stronger effect = lower value; scaled: aluminum fluoride 0%, vehicle 100% | percent of control (FP), % (no concentration beside the values) | 0.42% of 210,000 active;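 active means replicate mean at 85% of control or lower, very high polarization wells dropped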;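 further: wells of about 15 µL received 100 nL stock; the first replicate is given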
Target sequence (P08753 whole entry, looked up): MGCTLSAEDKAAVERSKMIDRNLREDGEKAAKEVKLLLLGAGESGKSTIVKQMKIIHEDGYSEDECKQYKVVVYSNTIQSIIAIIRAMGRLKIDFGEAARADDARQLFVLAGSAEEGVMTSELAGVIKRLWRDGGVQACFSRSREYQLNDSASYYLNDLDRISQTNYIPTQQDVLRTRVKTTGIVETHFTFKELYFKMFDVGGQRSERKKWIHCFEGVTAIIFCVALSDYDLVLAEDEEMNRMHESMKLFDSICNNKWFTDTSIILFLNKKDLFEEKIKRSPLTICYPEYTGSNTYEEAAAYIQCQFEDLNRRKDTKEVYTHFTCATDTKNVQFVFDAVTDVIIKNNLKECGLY
Sa growth 42C second temp: recorded beside Sa growth 42C, whose call it bears; relative growth, %; measured here: growth at 30 °C;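 optical density after 20 h as mean of two plates; 100% = untreated growth and lower means inhibition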
* hit, by the source's call; . = not tested or not shown; & = joins results of further samples.

mol,HCMV UL50-53 inh,Sa growth 42C,Sa growth 42C second temp,GIV-Gai inh
CC(C)NC(=O)c1ccc2c(=O)nc3c(-c4ccccc4)n[nH]n3c2c1,-15,.,.,112
COc1nc(NCc2ccccc2)nc(NCc2cccnc2)n1,-28,.,.,97
Cc1ccc(C)c(-n2nnc(C(=O)Nc3ccc(Br)cc3)c2C)c1,-25,101,90,98
Cc1nc2sccn2c(=O)c1S(=O)(=O)Nc1ccccc1,-31,92,78,102
Cc1ccc(NC(=O)c2cn(-c3ccccc3)cn2)cc1F,3,.,.,110
CN(C)S(=O)(=O)c1ccc2c(c1)N(CC(=O)N1CCN(c3ccc(F)cc3)CC1)CCS2,.,130,83,106
O=C(CC1C(=O)OCCN1Cc1ccccc1)Nc1ccc(F)cc1 (stereo not given),15,92,86,102
CN(C)c1ccc(/C=C/CN2CCC(O)CC2)cc1,-29,109,109,109
COC(=O)c1c(-c2c(Cl)cccc2Cl)noc1NC(=O)N(C)C,-14,115,89,97
CCn1c(SCC(=O)NC(C)C)nnc1-c1ccco1,-1,87,89,.
Cc1ccc(NC(=O)C2CCN(c3nc4ccccc4[nH]3)CC2)c(C)c1,.,80,80,102
Cc1nc2ccc(N3NOC=C3O)cc2s1,-41,91,83,103
COc1ccc2[nH]c(=O)c(CN(Cc3ccco3)C(c3nnnn3Cc3ccccc3)C(C)C)cc2c1 (stereo not given),-26,92,94,102
CC1CCN(C(=O)c2cc(N(C)S(=O)(=O)c3ccccc3)ccn2)CC1,-6,107,92,95
CNC(=O)c1ccc(-c2nc(CN3CCN(C(=O)NCc4ccc(C)cc4)CC3)c(C)o2)cc1,-29,.,.,108
CSc1cccc(NC(=O)c2cc3c(COC(C)=O)cnc(C)c3oc2=O)c1,.,124,99,99
O=C(CCCc1nc2ccccc2c(=O)[nH]1)Nc1ccccc1N1CCOCC1,-2,103,92,.
c1ccc2c3c([nH]c2c1)-c1nonc1CC3,-41,80,82,100
Cc1cc(-c2cc(N)n(-c3ccccc3)n2)c(C)n1C1CCCC1,3,105,94,.
CC(C)CCNC(=O)c1ccc2c(c1)N(C)C(=O)c1ccccc1S2,.,75,85,100

Next section:
mol,HCMV UL50-53 inh,Sa growth 42C,Sa growth 42C second temp,GIV-Gai inh
Cc1oc2ncnc(OCC(=O)NC(C)C)c2c1C,-28,.,.,100
Cc1nc(Nc2ccc(NC(=O)CCC3CCCCC3)cc2)cc(N2CCCC2)n1,-26,.,.,101
Cc1ccc(NC(=O)Nc2c(C)noc2-c2cccs2)cc1,-15,99,87,107
CCN(CC)C(=O)c1ccc(C(=O)c2ccccc2)o1,-54,96,83,.
CCOc1cc(/C=c2/sc3nc4cc(C)c(C)cc4n3c2=O)ccc1OCc1ccc(Cl)cc1Cl,-28,.,.,98
COC(=O)c1sccc1NC(=O)N1CCN(C(=O)Cc2csc3ccccc23)CC1,-13,.,.,93
COc1ccc(C2=NN(C(=O)COc3ccc(-c4nnco4)cc3)C(c3ccco3)C2)cc1 (stereo not given),10,114,98,.
CCc1ccc(NC(=O)c2ccc(-c3ccccc3)s2)cc1,24,108,98,109
CCCCN(Cc1ccccc1)C(=O)CN1C(=O)C2C3C=CC(C3)C2C1=O (stereo not given),1,107,99,106
COC(=O)c1sc(C(F)(F)F)c(-c2ccccc2)c1S(=O)(=O)N(C)C,4,97,106,105
CC(=O)N1CCOc2cc(S(=O)(=O)NCCN(C)C)c(Cl)cc21,10,111,99,110
COc1ccc2nc(N(CCN(C)C)C(=O)C3CCCCC3)sc2c1,17,97,97,102
c1csc(Nc2nc3cc4c(cc3s2)OCO4)n1,.,100,60,-40*
COC(=O)c1ccsc1N1C(=O)C=C(C)C1=O,-12,94,87,105
COC(=O)C1=C(CSc2nc(C)cc(C)n2)NC(=O)NC1c1ccc(F)cc1 (stereo not given),-12,87,96,.
CC(C)C(=O)Nc1nc2cc(NC(=O)C3CCN(S(=O)(=O)N4CCCC4)CC3)ccc2s1,-12,.,.,104
COC(=O)c1ccc(NS(=O)(=O)c2cccc3c2C(=O)c2ccccc2C3=O)cc1,-34,.,.,104
Cc1cccc(C(=O)N(CC#N)CC#N)c1,-9,103,102,.
COc1cc(-c2nc3ccccc3c(=O)n2NCc2cccc([N+](=O)[O-])c2O)cc(OC)c1OC,-30,.,.,103
COC1OC(C)C(OCc2ccccc2)C(O)C1O (stereo not given),2,93,106,.

Other entries follow:
mol,HCMV UL50-53 inh,Sa growth 42C,Sa growth 42C second temp,GIV-Gai inh
COc1ccc(NC(=O)CSc2nc3ccccc3n2Cc2cccc(OC)c2)cc1,.,121,106,109
O=C(Nc1ccccc1C(=O)NC1CCS(=O)(=O)C1)C1=CSCCO1 (stereo not given),-29,97,88,105
CC(C)Cc1nc2ccc(N)cc2[nH]1,-8,94,80,101
Cc1ccc(-c2n[nH]c(=S)c3ccccc23)cc1S(=O)(=O)NCc1cccnc1,.,86,87,103
CCN(c1ccccc1)c1ncnc(N)n1,-40,102,95,102
COc1ccc(CCNC(=O)COc2nsnc2N2CCOCC2)cc1OC,1,104,93,104
O=C1C2CCCC1C(c1ccc3c(c1)OCO3)NC2c1ccc2c(c1)OCO2 (stereo not given),-13,101,105,100
Cc1c(Cl)cccc1NC(=O)CCCN1C(=O)CCC1=O,-9,99,106,104
O=C(CN1C(=O)CSC1=O)N1CCCC1,.,95,84,98
Cn1c(=O)c2c(-c3ccccc3)c(Nc3ccccc3)oc2n(C)c1=O,-12,.,.,108
CNC(=O)c1c(NC(=O)c2snnc2C)sc2c1CCCC2,-11,.,.,97
CC(C)[C@H](NC(=O)c1ccco1)C(=O)N(C)Cc1c(F)cccc1Cl,-11,90,93,.
CNc1nc2c([nH]1)c(=O)n(C)c(=O)n2C,-18,92,88,106
C=CCN=c1scc(-c2ccco2)n1/N=C/c1ccc(C(=O)OC)cc1,-9,93,97,.
COc1cc(NC(=O)c2nn3c(C(F)(F)F)cc(-c4ccco4)nc3c2Cl)cc(OC)c1OC,-41,.,.,103
Cc1c(C(=O)O)nnn1-c1ccccc1Br,10,.,.,100
Cc1ccccc1OCC(=O)OC1CCCN(C)C1 (stereo not given),-4,99,88,105
CC1(C)CC(NS(C)(=O)=O)CC(C)(C)N1O,-11,98,90,.
O=c1ccn2c(SCc3ccccc3)nnc2[nH]1,-26,97,92,100
O=S(=O)(NC12CC3CC(CC(C3)C1)C2)c1cccc(C(F)(F)F)c1,.,64,60,107

Additional entries
mol,HCMV UL50-53 inh,Sa growth 42C,Sa growth 42C second temp,GIV-Gai inh
CC(=O)N/C(=C\c1ccc(Cl)cc1)C(=O)NCc1ccccc1,-4,85,97,.
CCS(=O)(=O)N1CCN(c2nc(C)nc3sc4c(c23)CCC(C)C4)CC1 (stereo not given),19,76,92,98
CCN(/C=C1\SC(=S)N(c2ccc(OC)cc2)C1=O)CC,-123,87,89,.
COCc1cc(C)nc2sc(C(N)=O)c(N)c12,.,73,85,108
O=C(CC(CC(=O)c1ccccc1)c1cccc2ccccc12)c1ccccc1,33,93,87,100
CCN(CC)c1ccc(NC(=O)CSc2cccc[n+]2[O-])cc1,-10,97,90,.
Oc1ccc(Cn2nc(-c3ccc(O)cc3)c3ccccc32)cc1,-3,99,105,.
O=C(CC(=O)c1ccccc1)Nc1ccccc1,-3,74,80,.
CCCCOc1ccc(C2Oc3ccccc3C3CC(c4ccc(Cl)cc4)=NN32)cc1 (stereo not given),-11,.,.,103
COc1ccc(-c2nnc(SCC(=O)N3CC(=O)Nc4ccccc43)o2)cc1OC,-25,80,94,.
CCn1cc(C(=O)NCc2cccnc2)c(=O)c2cc(S(=O)(=O)N3CCCC3)ccc21,-3,106,92,108
CCOc1nc2cnccc2n(Cc2ccccc2C#N)c1=O,-34,96,71,101
COc1ccc(-n2ccn(Cc3ccccc3C)c(=O)c2=O)cc1,-46,103,97,105
CC(C)=NNC(=O)c1ccccc1,-2,81,75,96
Cc1ccc(CSc2cn(CCNC(=O)c3cccs3)c3ccccc23)cc1,-7,74,87,102
Cc1ccc2[nH]cc(CCNC(=O)CN(C)c3nn4c(NC(C)(C)C)c(-c5ccccc5)nc4s3)c2c1,-18,.,.,96
CCC(C)NC(=O)C1CCC(=O)N(c2cc(OC)c(OC)c(OC)c2)C1c1ccc(OC)cc1 (stereo not given),.,99,78,106
CCOc1ccc(N=C2SC(C(=O)Nc3ccc(C(=O)O)cc3)CC(=O)N2C)cc1 (stereo not given),-2,.,.,106
Cc1cc(C(F)(F)F)nc(SCC(=O)NCc2cccc(C(F)(F)F)c2)n1,.,94,84,102
Nc1c(C(=O)NC2CCCC2)nnn1-c1ccccc1,-10,100,80,100

2 records picked at random from those above, as already listed:
mol,HCMV UL50-53 inh,Sa growth 42C,Sa growth 42C second temp,GIV-Gai inh
Nc1c(C(=O)NC2CCCC2)nnn1-c1ccccc1,-10,100,80,100
COc1ccc(-n2ccn(Cc3ccccc3C)c(=O)c2=O)cc1,-46,103,97,105

Following part:
| SMILES | HCMV UL50-53 inh | Sa growth 42C | Sa growth 42C second temp | GIV-Gai inh |
| --- | --- | --- | --- | --- |
| N#Cc1ccc(COn2nnc3ccccc32)cc1 | -10 | 92 | 98 | . |
| CC1CC(=O)Nc2ccccc2N1C(=O)c1cc(Cl)sc1Cl (stereo not given) | -44 | 127 | 91 | 111 |
| CC(C)Oc1ccc(-c2noc(CSc3nc4c(-c5ccccc5)c[nH]c4c(=O)[nH]3)n2)cc1 | -8 | . | . | 104 |
| CS(=O)(=O)c1cccc(S(=O)(=O)c2cccc(S(C)(=O)=O)c2)c1 | 2 | 116 | 82 | 99 |
| O=C(CSc1ncc(CO)n1Cc1ccc(Cl)cc1)NC1CCCCC1 | -18 | 99 | 86 | 103 |
| Cc1nnc(NC(=O)C2CCCN(c3ncccn3)C2)s1 (stereo not given) | 3 | 101 | 89 | 98 |
| COc1cccc(Cn2c(CNS(=O)(=O)c3ccc(Cl)s3)nc3cccnc32)c1 | . | 80 | 77 | 117 |
| Cn1ccnc1SCC(=O)N1CCc2c([nH]c3ccccc23)C1C(F)(F)F (stereo not given) | -24 | 99 | 69 | 103 |
| CC(C(=O)O)c1cccc(Oc2ccccc2)c1 (stereo not given) | -34&-40&-17&-27 | 90&98 | 82&92 | 104 |
| O=C(NCn1nc(-c2ccccc2)nc1-c1ccccc1)c1cccnc1 | -17 | 92 | 75 | 103 |
| CCC(=O)Nc1ccc2nc(SCc3ccc(F)c4ccccc34)sc2c1 | . | 86 | 88 | 105 |
| CC(=O)c1c(C)oc2ccc(NS(=O)(=O)c3ccc(C(C)C)cc3)cc12 | -32 | 112 | 81 | 105 |
| Cc1ccc(-n2c(SCC(=O)Nc3cccc(F)c3)nc3c(oc4ccccc43)c2=O)cc1C | -17 | 103 | 87 | 102 |
| O=C(COC(=O)c1ccccc1)c1ccc(-c2ccccc2)cc1 | 5 | 116 | 100 | . |
| O=S(=O)(c1ccc(F)cc1)N1CCCN(c2c(Cl)cncc2Cl)CC1 | -5 | 117 | 88 | 109 |

(next part)
| SMILES | HCMV UL50-53 inh | Sa growth 42C | Sa growth 42C second temp | GIV-Gai inh |
| --- | --- | --- | --- | --- |
| CN1CCC(N(C)CC(O)COCc2ccccc2Cl)CC1 (stereo not given) | -19 | 92 | 87 | . |
| O=C1c2ccccc2-c2nnc(-c3cccc(OC(F)(F)F)c3)cc21 | -26 | 87 | 83 | 106 |
| COCCN1C(=O)/C(=C/c2cc(OC)c(O)cc2Br)SC1=S | -39 | 84 | 95 | -61* |
| CC1(C)CC(c2ccccc2)(C(CO)CNCc2ccccc2)CCO1 (stereo not given) | -5 | 104 | 85 | . |
| Cc1ccc(N2C(=O)C3C4C=CC(CO)(O4)C3C2=O)cc1Br (stereo not given) | -18 | . | . | 104 |
| CC(C)n1cnc2nc(CSc3ccc(NC(=O)c4ccc(Br)cc4)cc3)cc(=O)n21 | -30 | . | . | 104 |

Ordered by value in Sa growth 42C (ascending): four from the list above
compound | Sa growth 42C
CCN(/C=C1\SC(=S)N(c2ccc(OC)cc2)C1=O)CC | 87
CCN(CC)C(=O)c1ccc(C(=O)c2ccccc2)o1 | 96
CCN(CC)c1ccc(NC(=O)CSc2cccc[n+]2[O-])cc1 | 97
O=C(CSc1ncc(CO)n1Cc1ccc(Cl)cc1)NC1CCCCC1 | 99
